Source: PubChem
VDR inhibitor = inhibitors of human vitamin D receptor; P11473; VDR-SRC2-3 peptide fluorescence polarization, 2 h; Potency, µM, for the others: max response, negative = inhibition, hits mostly inhibitors; hit rate 0.93% among 400,000; AID 504847; active = well fitted inhibition curve with a large enough effect; inconclusive = small, poorly fitted or top-dose-only effect, or another doubt; inactive = no such curve, though single readings can be large or run the other way; also: series mostly up to about 120 µM
Target sequence (P11473 whole entry, looked up): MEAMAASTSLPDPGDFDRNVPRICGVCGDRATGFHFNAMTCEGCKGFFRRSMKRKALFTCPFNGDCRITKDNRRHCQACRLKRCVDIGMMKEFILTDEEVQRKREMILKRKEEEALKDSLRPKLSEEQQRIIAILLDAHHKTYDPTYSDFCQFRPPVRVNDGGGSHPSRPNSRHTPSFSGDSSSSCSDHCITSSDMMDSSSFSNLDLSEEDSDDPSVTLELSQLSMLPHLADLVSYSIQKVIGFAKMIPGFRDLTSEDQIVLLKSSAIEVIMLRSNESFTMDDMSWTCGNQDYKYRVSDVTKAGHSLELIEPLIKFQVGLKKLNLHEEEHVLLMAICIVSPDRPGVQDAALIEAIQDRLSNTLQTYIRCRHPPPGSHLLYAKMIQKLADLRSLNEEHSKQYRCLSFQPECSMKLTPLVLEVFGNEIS
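Signal is fluorescence polarization, reporting how far test compounds block the interaction of VDR with the SRC2-3 coregulator peptide after a 2 h room-temperature incubation.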
The depositor's hits bear a star; u = inconclusive; & = joins results of further samples; [ ] = remark or other dose. % is scaled to controls: 0 for no effect and ±100 for the full control effect; potency is read from the fitted curve at half-maximal effect. These rows are one share of the data. The share of hits here may be higher or lower than overall.

VDR inhibitor	SMILES
-5.1%	Cc1cccc(C)c1Nc1nnc(SC(C)C(=O)Nc2c(C)n(C)n(-c3ccccc3)c2=O)s1 (centres undefined)
-29.7%	COc1ccc(OC)c(NC(=O)CN(C)S(=O)(=O)c2ccc3nc(C)sc3c2)c1
10.1%	COC(=O)c1[nH]c(=O)c2ccccc2c1OCc1ccccc1
-20.3%	O=C(Cn1ncc2c([nH]c3ccccc32)c1=O)NCCc1ccccc1
-4.8%	COc1ccccc1NC(=O)c1cc(N2C(=O)C3C4CCC(C4)C3C2=O)ccc1Cl (centres undefined)
-16.0%	COc1ccc(S(=O)(=O)c2c(O)c(C)cc(NS(=O)(=O)c3ccc(Cl)cc3)c2C(C)C)cc1
20.3%	CC(C)C(OC(=O)c1cccs1)C(=O)NCc1ccc(F)cc1 (centres undefined)
-4.7%	CC(=O)c1ccc(O)c(CSC2=NCCS2)c1
10.2%	O=C(NC1CCCC1)c1ccc(CSc2nc3cccnc3n2Cc2ccccc2)cc1
6.7%	Cc1ccccc1NC(=O)CSc1nnc2ccc(-c3cccnc3)nn12
4.9%	Cc1ccc(C2=N/C(=C/c3cccs3)C(=O)N2Nc2ccccc2)cc1
-13.5%	CCc1cc(=O)oc2cc(C)cc(OCC(=O)NC(Cc3c[nH]c4ccc(O)cc34)C(=O)O)c12 (centres undefined)
-12.0%	CCOc1ccc(-n2c(SCC(=O)Nc3ccccc3OC)nc3c(oc4ccccc43)c2=O)cc1
-1.9%	CCc1cccc(CC)c1NC(=O)COC(=O)CC1c2ccccc2CCN1S(=O)(=O)c1ccc(F)cc1 (centres undefined)
u	Cc1ccc(NC(=O)CCC(=O)N/N=C/c2cccnc2)cc1
-0.8%	CC(=O)OCC(=O)[C@@]1(O)CC[C@H]2[C@@H]3CCC4=CC(=O)C=C[C@]4(C)[C@H]3C(=O)C[C@@]21C
-9.4%	CCc1ccc(NC(=O)Cn2c(=O)n(CCCCC(=O)NCc3ccc4c(c3)OCO4)c(=O)c3ccccc32)cc1
-12.3%	O=C(COc1ccc(F)cc1)OCCN1CCOCC1
-4.2%	COc1ccc(OC)c(NS(=O)(=O)c2c(C)nc3sccn3c2=O)c1
u	Cc1ccc(Oc2ccc(S(=O)(=O)N3CCOCC3)cc2C(N)=O)cc1C
-1.4%	CC(C)C(NS(=O)(=O)c1ccc2c(c1)oc(=O)n2C)C(=O)N1CCN(c2ccccc2F)CC1 (centres undefined)
-1.9%	CC(C(=O)N1CCCCC1)N(C)CC(=O)Nc1cccc(F)c1 (centres undefined)
-14.8%	O=C(N/N=C/c1ccncc1)C1CC1C(=O)N/N=C/c1ccncc1 (centres undefined)
15.3%	CCCc1cc(C(=O)Nc2cccc([N+](=O)[O-])c2)cs1
4.4%	Cc1cccc(NC(=O)Cn2nc(-c3ccc(Cl)cc3)c3ccccc3c2=O)c1
-2.3%	O=S(=O)(Nc1cccc(-n2cnnn2)c1)c1ccc(Cl)nc1
6.8%	Cc1ccc(NC(=O)c2cc(S(=O)(=O)NCCc3ccc(Cl)cc3)ccc2F)cc1
5.6%	CC(C)(C)c1ccc(C(=O)Nc2ccccc2NC(=O)c2ccco2)cc1
0.7%	O=C(COC(=O)c1cccc(Cl)c1)NCCN1C(=O)CSC1=O
-5.1%	COc1ccc(CNc2ccc3c(c2)ncn3C)cc1OC
-5.3%	O=C(Cn1nnc2ccccc21)NC1CCCCC1
-2.6%	Cc1ccc(OCC(=O)N2CCN(S(C)(=O)=O)CC2)cc1
4.1%	Cc1c(Cl)cccc1NC(=S)NCC(O)c1ccccc1 (centres undefined)
3.2%	Cc1ccc(-c2nc(-c3ccccn3)no2)cc1
4.5%	COc1ccc(CNC(=O)C2CCN(C(=O)c3sccc3-n3cccc3)CC2)cc1
3.9%	CCOC(=O)N1CCC(NC(=O)C2CCN(S(=O)(=O)N3CCC(C)CC3)CC2)CC1
-22.8%	CCCNC(=O)Cn1cnc([N+](=O)[O-])n1
3.9%	CCC(Sc1nc2n[nH]c(C)c2c(=N)n1-c1cc(Cl)ccc1C)C(=O)N1CCOCC1 (centres undefined)
5.0%	Cc1ccc(C)c(SCC(=O)Nc2ccc(S(=O)(=O)Nc3ncccn3)cc2)c1
-8.0%	COc1cccc(N/N=C/c2cccc(Br)c2O)c1
-5.8%	CC(C)(C)OC(=O)C[C@H]1C/C=C\C[C@@H](CC(=O)N(CCO)Cc2ccccc2)C(=O)NC[C@H](c2ccccc2)OC1=O
29.8%	COC(=O)[C@@H](NC(=O)NC1CCCc2ccccc21)C(C)C (some centres undefined)
0.9%	O=C(c1ccco1)c1cn(CCOc2ccc(F)cc2)c2ccccc12
-3.6%	CCOC(=O)C(=CN(CCc1ccccc1)CC(=O)OC)C(=O)OCC
-5.4%	COC(=O)c1c(NC(=O)CN2CCN(C(=O)c3ccco3)CC2)c2c(C)cccc2n1C
-10.7%	Cc1onc(-c2c(F)cccc2Cl)c1C(=O)Nc1ccc(OC(C)C)cc1
-3.0%	C[C@]1(C(=O)O)Cc2oncc2C[C@@H]1C(=O)O
11.0%	Cc1ccc(NC(=O)NNC(=O)c2sccc2-n2cccc2)cc1
1.3%	COCCCNc1ncnc2sc3c(c12)CCC(C)C3 (centres undefined)
u	O=C1NC(=O)C2(COC(c3cccnc3)OC2)S1 (centres undefined)
u	Cc1ccc(S(=O)(=O)n2nc(OC(=O)c3ccccc3F)cc2N)cc1
3.6%	CCCCN(C(=O)CSCC(=O)Nc1ccc(OC)cc1)c1c(N)n(CC(C)C)c(=O)[nH]c1=O
-0.7%	COC(=O)c1nnc(-c2ccccc2)c(-c2ccccc2)n1
-15.0%	Cc1ccc(CN2CCC(n3nccc3NC(=O)C3CCOC3)CC2)cc1 (centres undefined)
-14.2%	COC(=O)N/N=C/c1ccccc1
-18.5%	CCC(=O)N1CCc2cc(Br)cc(S(=O)(=O)CCC(=O)N(C)c3cccc(C)c3)c21
-8.1%	CC(C)(C)c1ccc(NC(=O)Nc2ccc3ccccc3n2)cc1
-9.9%	CC(C)CCNC(=O)CN(CCCN1CCOCC1)C(=O)Cn1nnc(-c2ccc(F)cc2)n1
10.6%	O=C(O)CCC/C=C\C/C=C\C=C\[C@@H](O)C/C=C\CCCCCO
-8.4%	CCOC(=O)C1CCN(C(=O)COC(=O)c2ccc3c(c2)C(=O)N(c2ccc(OCC)cc2)C3=O)CC1

Molecules from the list above that have an aryl methoxy group:
VDR inhibitor	SMILES
-29.7%	COc1ccc(OC)c(NC(=O)CN(C)S(=O)(=O)c2ccc3nc(C)sc3c2)c1
-4.8%	COc1ccccc1NC(=O)c1cc(N2C(=O)C3C4CCC(C4)C3C2=O)ccc1Cl (centres undefined)
-16.0%	COc1ccc(S(=O)(=O)c2c(O)c(C)cc(NS(=O)(=O)c3ccc(Cl)cc3)c2C(C)C)cc1
-12.0%	CCOc1ccc(-n2c(SCC(=O)Nc3ccccc3OC)nc3c(oc4ccccc43)c2=O)cc1
-4.2%	COc1ccc(OC)c(NS(=O)(=O)c2c(C)nc3sccn3c2=O)c1
-5.1%	COc1ccc(CNc2ccc3c(c2)ncn3C)cc1OC
4.5%	COc1ccc(CNC(=O)C2CCN(C(=O)c3sccc3-n3cccc3)CC2)cc1
-8.0%	COc1cccc(N/N=C/c2cccc(Br)c2O)c1
3.6%	CCCCN(C(=O)CSCC(=O)Nc1ccc(OC)cc1)c1c(N)n(CC(C)C)c(=O)[nH]c1=O

The listing continues:
VDR inhibitor	SMILES
9.8%	O=C(Nc1ccccc1)c1cccc(S(=O)(=O)Nc2cccc(F)c2)c1
-6.2%	Cc1c(C)n(CCc2ccccc2)c2ncnc(NCCCN(C)C)c12
-21.3%	O=C1CC(c2ccccc2O)Oc2ccc(O)cc21 (centres undefined)
10.9%	Cc1ccccc1-c1nc(CS(=O)(=O)CC(=O)NCCCc2ccccc2)c(C)o1
11.0%	Cc1ccc(-c2cc(C(F)(F)F)nc(SCC(=O)c3cccc([N+](=O)[O-])c3)n2)cc1
0.5%	COc1cc(-c2nc3ccccn3c2/N=C/c2ccc(F)cc2)ccc1O
-3.2%	CC(=O)N1CCN(c2c(F)c(F)c(C(F)(F)F)c(F)c2F)CC1
3.1%	CCOC(=O)c1c(NC(=S)Nc2ccc(Cl)cc2)sc(C)c1C
4.8%	O=C(Nc1cccc([N+](=O)[O-])c1)c1cc(S(=O)(=O)Nc2ccccn2)ccc1Cl
-5.4%	CCCc1ccc2oc(C(=O)NCCc3cnn(C)c3)c(C)c2c1
-6.5%	COC(=O)CN1C(=O)C(C)(C)c2cc(S(=O)(=O)NCc3ccc(Cl)cc3)ccc21
14.0%	CCOC(=O)N1CCN(C(=O)c2ccccc2NC(=O)c2ccc(Br)cc2)CC1
-8.9%	O=C(COc1ccc2c(-c3ccccc3)cc(=O)oc2c1)Nc1ccc(CN2CCOCC2)cc1
-22.8%	N#CCCn1cc(C(N)=O)c(-c2ccc3ccccc3c2)n1
-20.3%	COCCN(Cc1nc2ccccc2c(=O)[nH]1)C(=O)c1cccc(S(=O)(=O)N2CCCC2)c1
1.7%	Cc1ccc(-n2nc(C(=O)O)c(C)c(C#N)c2=O)cc1Cl
-7.0%	O=C(Nc1ccc([N+](=O)[O-])cn1)c1cc(-c2cccc(Cl)c2)nc2ccccc12
-5.3%	O=C(c1cc2n(n1)C(C(F)(F)F)CC(c1ccc(Cl)cc1)N2)N1CCCC1 (centres undefined)
8.3%	Cc1cc(OC(=O)c2ccccc2C(F)(F)F)c([N+](=O)[O-])c(=O)[nH]1
-10.8%	CC(C)Oc1ccc(C(=O)NCc2cccs2)cc1
-8.4%	CCCOP(=O)(OCCC)c1c([N+](=O)[O-])cc(C(F)(F)F)cc1[N+](=O)[O-]
27.8%	Cc1ccc(NC(=O)/C(Cl)=C\c2ccccc2)cc1
11.7%	CCCCN(CCCC)C(=O)c1c[nH]c2ccc(S(=O)(=O)Nc3cccc(Cl)c3C)cc2c1=O
-15.8%	CCN(CC)c1nc(NN)nc(Nc2ccc(C)c(Cl)c2)n1
6.5%	Cc1ccc2c(c1)N(CC(=O)Nc1ccc3c(c1)OCCO3)C(=O)CO2
-17.9%	O=C(COC(=O)c1cc(S(=O)(=O)N2CCOCC2)ccc1Cl)NCc1ccco1
2.8%	COc1ccc2c(c1)-c1nc(NC(=O)c3cccs3)sc1CC2
8.8%	CCOC(=O)Cn1cnc2scc(-c3ccc(C)cc3)c2c1=O
4.6%	COc1cc(OC)cc(C(=O)NC(=S)Nc2ccc(NC(=O)c3ccco3)cc2)c1
5.9%	COc1ccc(C(CNC(=O)CN2C(=O)NC3(CC(C)CC(C)(C)C3)C2=O)N2CCOCC2)cc1 (centres undefined)
-15.6%	c1ccc(CNc2c(-c3cccc(SC4CCCCC4)c3)nc3ccccn23)cc1
-9.9%	Clc1cccc(OCCCCN2CCCCC2)c1
15.5%	COc1ccc(Br)cc1S(=O)(=O)n1ccnc1
-14.0%	COc1cc(/C=C2/C(=N)N3C=CSC3=NC2=O)ccc1OCCCOc1cc(C)ccc1C
8.4%	C=C(C(C)=O)C(O)c1cccc(OC)c1 (centres undefined)
-10.9%	COc1cccc(NC(=O)[C@H](Cc2c[nH]c3ccccc23)NC(=O)[C@@H]2Cc3ccccc3CN2)c1
15.6%	O=C(Nc1cccc2ccccc12)c1ccccc1Cl
-6.3%	O=C(COC(=O)c1cc(S(=O)(=O)Nc2ccccc2Cl)ccc1O)Nc1ccc(F)c(F)c1F
4.2%	COc1ccc(Nc2cc(C(=O)N3CCc4ccccc4C3)c3ccccc3n2)c(OC)c1
-17.4%	COc1ccc(NC(=O)CCCNC(=O)Cn2cnc3sc(C)c(C)c3c2=O)c(OC)c1
-4.8%	CN(C)S(=O)(=O)c1cc(NC(=O)CN2CCNC(=O)C2)ccc1Cl
9.8%	CC(=O)Nc1ccc(S(=O)(=O)N2CCN(C(=O)c3ccco3)CC2)cc1
20µM*	O=C(CSC1=NCCS1)NCc1ccco1
15.3%	CC1(C)O[C@H]2[C@@H](O1)[C@@H](C(=O)Nc1ccccc1C(F)(F)F)O[C@@H]1OC(C)(C)O[C@@H]12
-15.4%	COCCn1c(N2CCN(c3ccccc3)CC2)nc2c1c(=O)n(C)c(=O)n2C
-12.1%	Cc1ccc(Nc2ncnc(Cl)c2N)cc1
0.4%	O=C(NCCS(=O)(=O)N1CCN(c2ccccc2F)CC1)c1c(F)cccc1F
34.8%[activator]	Cc1ccc2c(c1)c(C)c(C)n2CC(O)Cn1nnc2ccccc21 (centres undefined)
-29.9%	Cc1cc(C)c(NC(=O)CCCCCNC2CCCCC2)c(C)c1
-7.5%&-2.5%	Cc1c(C(=O)Nc2ccccc2F)sc2nc3n(c(=O)c12)CCC3
-0.4%	C#CCOCCOCCOCCNc1nc(N2CCN(C(=O)[C@H]([C@@H](C)CC)n3cc([C@@H](N)Cc4ccc(O)cc4)nn3)CC2)nc(N2CCN(C(=O)[C@H](Cc3ccc(O)cc3)n3cc([C@@H](N)CC(C)C)nn3)CC2)n1
5.0%	Cc1ccc(N2C(=O)CC(Cc3cccc(C)c3)C2=O)cc1 (centres undefined)
-8.8%	CCN1C(=O)C(CC(=O)Nc2ccccc2Cl)N(NC(=O)c2cccc(F)c2)C1=S (centres undefined)
-19.3%	OCC[C@H]1C[C@H](O)[C@@H](O)[C@@]2(Cc3ccccc3O2)O1
7.8%	O=C(Nc1ccccc1NC(=O)c1c(F)c(F)c(F)c(F)c1F)c1c(F)c(F)c(F)c(F)c1F
-20.4%	O=C(O)c1ccccc1SC1CC(=O)N(c2cccc3ccccc23)C1=O (centres undefined)
-10.2%	Cc1ccc(-c2cc(C(F)F)nc(NCC3CCCO3)n2)cc1 (centres undefined)
8.3%	CC(=O)Nc1ccc(NC(=O)C(C)OC(=O)C2CCN(S(=O)(=O)c3ccccc3C(F)(F)F)CC2)cc1 (centres undefined)
2.7%	CCN1CCN(S(=O)(=O)c2ccc(Br)s2)CC1
-7.3%	CC1(C(=O)NCCOc2ccccc2Cl)CC1(Cl)Cl (centres undefined)
0.0%	CCOC(=O)C1C(=O)CC(C)(O)C(C(=O)OCC)C1c1ccc(OCC)cc1 (centres undefined)
